Bioassay records as filed in PubChem BioAssay.
Rango dissoc inh: inhibitors of RanGTP-induced Rango-importin beta complex dissociation | hit rate 0.071% among 340,000 | Biochemical FRET Rango-importin beta, RanGTP-induced dissociation | O95149+P62826 | Potency, µM (top dose mostly 46.1 µM), inactives show at the highest dose activity change, negative = inhibition; active means falling FRET ratio curve, often poorly fitted, with flat reads before Ran was added; inconclusive means other falling curves, or compound fluorescence or quenching; inactive means flat or rising ratio curve;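 note: potency is the fitted concentration of half-maximal effect; % of control where 0% means no effect; nearly all actives have a fitted effect of over 45% in size; -100% = wells without RanGTP and RCC1; the record marks most hits as doubtful in a second field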
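Compounds sat 5 min at room temperature with 0.1 uM Rango biosensor plus 0.25 uM importin beta, then FRET pre-read. RanGTP-RCC1 (0.6 uM Ran, 2mM GTP, 0.2 uM RCC1) added for 45 min, and the CFP/YFP post-read measured blocked complex dissociation.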
Rango-impB inh: Rango-importin beta binding inhibition; Q14974; Rango CFP/YFP FRET sensor + importin beta, 45 min; Potency, µM (top dose mostly 92.2 µM), without a hit: at the highest dose inhibition of complex formation; hit rate 0.031% among 340,000; AID 540263; active = rising FRET ratio curve, often small or poorly fitted; inconclusive = mostly compound fluorescence or quenching in the first reads; inactive = flat curves in all reads;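 note: potency is the fitted concentration of half-maximal effect; 0% = DMSO wells and 100% = buffer wells lacking importin beta; nearly all actives have a fitted effect of over 15% in size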
Target sequence (Q14974 whole entry, looked up): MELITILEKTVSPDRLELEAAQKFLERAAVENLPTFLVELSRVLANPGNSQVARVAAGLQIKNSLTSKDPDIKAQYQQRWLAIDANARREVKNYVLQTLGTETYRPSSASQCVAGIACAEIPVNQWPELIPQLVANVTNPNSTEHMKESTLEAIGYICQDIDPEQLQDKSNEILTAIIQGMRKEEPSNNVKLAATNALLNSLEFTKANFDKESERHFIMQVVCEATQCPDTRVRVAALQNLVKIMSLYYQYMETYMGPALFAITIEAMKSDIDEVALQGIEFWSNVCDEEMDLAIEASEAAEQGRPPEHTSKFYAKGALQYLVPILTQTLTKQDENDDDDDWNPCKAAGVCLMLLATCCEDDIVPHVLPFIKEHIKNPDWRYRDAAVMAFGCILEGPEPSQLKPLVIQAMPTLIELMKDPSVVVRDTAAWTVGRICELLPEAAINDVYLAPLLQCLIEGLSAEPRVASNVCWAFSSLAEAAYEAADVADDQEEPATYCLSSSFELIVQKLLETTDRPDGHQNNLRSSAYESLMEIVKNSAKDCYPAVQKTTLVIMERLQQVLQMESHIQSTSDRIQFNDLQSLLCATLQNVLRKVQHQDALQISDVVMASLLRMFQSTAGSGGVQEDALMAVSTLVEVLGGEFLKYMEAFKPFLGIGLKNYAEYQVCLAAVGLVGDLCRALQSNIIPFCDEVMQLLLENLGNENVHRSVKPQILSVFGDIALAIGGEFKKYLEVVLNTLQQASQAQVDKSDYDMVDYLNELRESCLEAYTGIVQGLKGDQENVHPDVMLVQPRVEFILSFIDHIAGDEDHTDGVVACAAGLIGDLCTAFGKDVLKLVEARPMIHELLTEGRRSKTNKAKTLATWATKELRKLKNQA
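Inhibition scored from the CFP 486 nm/YFP 530 nm FRET ratio 45 min after adding 0.125 microM importin beta to 50 nM Rango biosensor preincubated 5 min with compound (room temperature, PBS with DTT, Tween-20, BSA). No-importin wells as positive control.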
GLA inh pH 4.5: alpha-galactosidase A (human) inhibition, pH 4.5; purified enzyme, 4-MU-alpha-Gal fluorescence, pH 4.5; activity change, negative = inhibition, % at 105 µM; 230,000 tested, under 10 active; AID 1467; inconclusive = small, poorly fitted or top-dose-only inhibition, or a rising curve; inactive = flat fitted curve, though single readings scatter; no compound was filed as active;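 note: 0% = full activity with enzyme and -100% = basal without enzyme; dose as in the result columns while the protocol names 77 µM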
miR-21 FLuc: miR-21 reporter, rising signal. AID 2288. Potency, µM (doses to about 38.3 µM), for the others: at the highest dose reporter change, positive = more light. 340,000 tested, under 10 active. HeLa miR-21 FLuc reporter, luciferase, 48 h; active = well fitted rising curve with a large enough effect; inconclusive = small, poorly fitted or top-dose-only effect; inactive = no such curve, though single readings can be large or run the other way;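 note: % of control where 0% means no effect; miR-21 action dims this reporter so a rising signal means less miR-21 action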
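HeLa miR-21-FLuc reporter line, endogenous miR-21; 2000 cells/well in DMEM/10% FBS; compound titration up to ~40uM final, 48 h, 37 degree Celsius; luciferase detection reagent, 15 min lysis, CCD luminescence.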
The depositor's hits bear a star; ? = inconclusive; / = no result given; & = joins results of further samples. Not all compounds are listed. The share of hits here may be higher or lower than overall.

SMILES	Rango dissoc inh	Rango-impB inh	GLA inh pH 4.5	miR-21 FLuc
COc1ccc(CNC(=O)C2CCN(C(=O)c3ccc(-c4ccccc4)cc3)CC2)cc1	55.2%	3.9%	/	-3.9%
CCNc1nc(NCC)nc(Nn2cnnc2)n1	23.1%	0.4%	0.4	-2.4%
COc1ccc(Cc2nc3ccc(C(=O)N4CCCC4)cc3o2)cc1OC	-0.6%	2.6%	/	8.3%
Cc1cc(C)c(NC(=O)CS(=O)CC(=O)NCC2CCCO2)c(C)c1 (stereo not given)	-14.2%	-1.1%	-11.6	2.0%
N#CC1=C(N)NC(SCc2ccccc2)=C(C#N)C12CCCCC2	-7.2%	?	0.0	27.9%
CCN(CC)S(=O)(=O)c1ccc(C)c(NC(=S)N2CCN(c3ccccn3)CC2)c1	5.5%	-0.1%	/	21.4%
Cc1nn(-c2cccc(Cl)c2)nc1C(=O)O	-13.2%	1.7%	7.6	-7.9%
C=CCSC1=N/C(=C\c2ccc(C)o2)C(=O)S1	-5.8%	-0.1%	1.1	-3.4%
O=C(NCCc1ccccc1)C(=O)NCC1OCCN1S(=O)(=O)c1cccs1 (stereo not given)	-4.1%	2.9%	/	-7.5%
N#CCC(=O)Nc1ccc(C(=O)OCC(=O)NC2CCCc3ccccc32)cc1 (stereo not given)	-7.4%	-0.8%	/	/
O=C(NCCSc1ncc(-c2ccc(F)cc2)[nH]1)c1ccc2c(c1)OCO2	-0.3%	-1.2%	/	/
Cn1c(=O)[nH]c(=O)c2c1nc(NCCO)n2CCOc1ccccc1	19.6%	0.4%	/	3.2%
O=C1COc2ccc(C(=O)CSc3nnc(Cc4ccccc4)o3)cc2N1	-21.7%	5.1%	/	/
COc1ccc2ccccc2c1CNc1nnnn1C	27.6%	0.1%	-14.7	-4.9%
COc1cc(Sc2ccc(C)cc2)c(OC)cc1N	7.0%	-0.2%	6.2	-6.0%
O=C1CN(C(=O)COC(=O)c2ccc([N+](=O)[O-])s2)c2ccccc2N1	-0.1%	-3.3%	/	/
CC(NC(=O)C1CCC1)c1ccc2c(c1)OCO2 (stereo not given)	-4.9%	?	6.7	0.9%
COc1ccc(C(=O)c2cn[nH]c2-c2ccc(C)cc2O)cc1	?	0.8%	/	-9.0%
CCOc1ccc(N2CC(C(=O)NCc3ccc(F)cc3)CC2=O)cc1 (stereo not given)	-0.9%	3.5%	-4.9	-3.2%
COC(=O)c1ccc(N)c(CS(=O)(=O)c2ccc(Cl)cc2)c1	10.8%	-2.3%	/	-0.9%
CN(C)C1(CNCC(O)c2ccccc2)CCCCC1 (stereo not given)	11.9%	3.4%	/	-1.1%
Cc1ccc(O)c(-c2cc(C(=O)Nc3ccc(S(=O)(=O)N4CC(C)OC(C)C4)cc3)[nH]n2)c1 (stereo not given)	6.6%	-0.1%	-8.6	?
Cc1ccc(C(=O)Nc2cccc(C(F)(F)F)c2)cc1NC(=O)c1[nH]cnc1C(N)=O	2.3%	-2.2%	/	/
CN1CCN(NC(=O)c2ccc(Cl)cc2Cl)CC1	-1.9%	0.9%	-3.9	-5.9%
Cc1nnc(SCC(=O)N(C)C2CCS(=O)(=O)C2)n1Cc1ccccc1 (stereo not given)	5.5%	-4.7%	-18.1	-2.1%
CCOC(=O)c1[nH]c2ccc(OC)cc2c1NC(=O)c1nonc1C	-13.2%	-3.0%	2.9	-6.1%
CC(C)=CCC/C(C)=C/C(=O)O	0.9%	-3.2%	2.1	0.9%
Cc1c(N/C(=N/S(=O)(=O)c2ccc(F)cc2)c2ccccc2)c(=O)n(-c2ccccc2)n1C	50.1%	0.1%	0.2	0.1%
COc1ccc(NC(=O)Nc2ncn(Cc3cccc(C(F)(F)F)c3)n2)cc1OC	-1.9%	-3.9%	1.3	-8.9%
CC(CC(=O)NCC1CCCO1)c1ccccc1 (stereo not given)	4.7%	-1.7%	0.8	-5.9%
CN1CCN(C2CCN(Cc3ccc(O)c4ncccc34)CC2)CC1	3.5%	-0.2%	/	/
CNC(=O)c1ccsc1NC(=O)C1CCN(S(=O)(=O)c2cccs2)CC1	-9.0%	0.9%	/	/
COc1ccc(CCNC(=O)C2CC(=O)N(c3ccc(C)cc3)C2)cc1OC (stereo not given)	0.7%	-0.4%	/	1.4%
CCOC(=O)C(C)Oc1ncnc2cccc(F)c12 (stereo not given)	-0.7%	2.7%	-17.2	-5.0%
CCOC(=O)c1c(S(=O)(=O)NCC(=O)Nc2ccccc2)c(C)n(C)c1C	-14.0%	6.2%	/	-1.8%
COc1ccc(OC)c(NC(=O)COC(=O)/C=C/c2ccc(Cl)cc2)c1	10.1%	-0.2%	-4.3	-2.9%
Cc1cccc(N=N/C(=C\O)C(=O)c2cccs2)c1	-4.1%	-0.7%	-9.4	29.1%
Cc1cc2ccccc2c(=O)n1CC(=O)NCC1COc2ccccc2O1 (stereo not given)	7.1%	-1.2%	1.1	-5.0%
COc1ccccc1CNC(=O)CCCn1nc(C)c2c(C)n(-c3ccc(C)cc3)nc2c1=O	5.2%	-1.2%	/	0.1%&11.5%
COc1ccc(CNC(=O)CC2C[C@H](C(=O)N3CCCCC3)[C@@]3(C)c4[nH]c5ccccc5c4CCN3C2=O)cc1OC (stereo not given in full)	-11.1%	0.5%	/	/
CC(CNC(=O)CN1C(=O)COc2ccc(S(=O)(=O)N3CCCCC3)cc21)c1ccccc1 (stereo not given)	-0.9%	-0.2%	/	0.7%&-8.3%
CCN1CCN(C(=O)c2ccc(Cl)c(S(=O)(=O)N3CCCCC3)c2)CC1	-4.5%	-1.5%	/	0.5%
COc1ccccc1C(=O)NC(=O)COC(=O)Cc1ccc(F)cc1	-8.0%	-1.1%	/	/
CCN(CC)CCNC(=O)C1(O)c2cc(Br)ccc2NC(=O)N1c1ccccc1 (stereo not given)	1.2%	0.2%	/	-5.4%
Cc1occc1-c1nnc(SCC(=O)Nc2ccccc2N2CCCCC2)n1C	-6.4%	3.0%	1.2	10.0%
O=C(CN1C(=O)C(=O)N(Cc2ccco2)C1=O)c1c[nH]c2ccccc12	-9.7%	-3.7%	-2.2	-18.4%
COc1ccccc1Nc1nc(Cl)nc(Nc2ccccc2OC)n1	-18.7%	-1.5%	3.3	14.8%
CC(C)CN(C(=O)c1cc(Cl)nc2ccccc12)c1c(N)n(Cc2ccccc2)c(=O)[nH]c1=O	14.9%	-1.1%	/	/
C=CCNC(=S)N/N=C(\C)c1cccc(OC)c1	0.7%	-1.1%	7.8	-20.1%
CN(C)CCCNc1ncnc2oc(-c3ccccc3)c(-c3ccccc3)c12	3.7%	1.6%	/	?
COc1ccc(CCC(=O)N2CCCC(Nc3ccc(OC)cc3)C2)cc1 (stereo not given)	14.9%	-0.8%	/	5.7%
Clc1ccc(-c2nnc(Sc3nc4ccccc4o3)c3ccccc23)cc1	-3.5%	?	-7.8	-13.8%
CCC(=O)c1ccc(OC(=O)c2cccs2)cc1	14.5%	3.1%	/	/
CCN(CC)CCOc1ccc2nc(N(C)C)sc2c1	-9.9%	?	?	-15.1%
CC(=O)Nc1cc(C(=O)CSc2nnc(C3CC3)n2C2CC2)ccc1O	26.9%	-1.2%	/	/
CCOC(=O)N1CCN(S(=O)(=O)c2ccc(OC)cc2)CC1	0.0%	-2.2%	/	0.4%
Cc1cc(C)c(S(=O)(=O)Nc2nnc(CC(C)C)s2)c(C)c1	7.7%	0.4%	/	-1.3%
CN(C)/C=C/C(=O)c1ccc2noc(-c3cccc(F)c3)c2c1	-2.0%	-0.1%	/	11.5%
COc1ccccc1NS(=O)(=O)c1ccc(C(=O)NCCCN2CCCC2=O)cc1	-1.2%	-1.0%	/	/
COC(=O)C1CCCCN1C(=O)c1cc(COc2cccc3cccnc23)on1 (stereo not given)	8.1%	-0.6%	/	-3.8%

Part of the list above with just miR-21 FLuc and Rango dissoc inh.
Molecule | miR-21 FLuc | Rango dissoc inh
CNC(=O)c1ccsc1NC(=O)C1CCN(S(=O)(=O)c2cccs2)CC1 | / | -9.0%
COc1ccc(CCNC(=O)C2CC(=O)N(c3ccc(C)cc3)C2)cc1OC (stereo not given) | 1.4% | 0.7%

More entries.
SMILES	Rango dissoc inh	Rango-impB inh	GLA inh pH 4.5	miR-21 FLuc
CN(C)CCCN(C(=O)COc1ccc(Cl)cc1)c1nc2cc3c(cc2s1)OCO3	2.7%	0.1%	/	2.1%
O=C(NCc1nnc(SCC(=O)N2CCCCC2)o1)c1c(F)cccc1Cl	-2.0%	-0.3%	/	0.0%
CC(C(=O)N1CCCCCC1)c1ccc([N+](=O)[O-])cc1 (stereo not given)	-8.2%	4.0%	7.8	-1.6%
COc1ccc(C(=O)NC2CCN(C(=S)Nc3cccc(C)c3C)CC2)cc1	1.0%	-0.3%	-2.9	-0.6%
O=C(Nc1nnc(/N=C/c2ccco2)s1)c1ccc(F)cc1	-6.9%	-0.4%	3.7	-22.0%
CN(C)C(=O)COC(=O)c1cccnc1Nc1ccccc1F	5.9%	-1.0%	7.0	-12.4%
Cc1ccccc1C(=O)N1CCC(C(=O)Nc2ccc(C)c(S(=O)(=O)N3CCCCC3)c2)CC1	-16.2%	2.5%	/	/
Cc1ccccc1-n1c(C)cc(/C=C2\NC(=O)NC2=O)c1C	10.9%	5.9%	5.9	-50.2%
Cc1cc(O)cc(O)c1C(=O)Cc1cnn(-c2ccccc2)c1	0.3%	-1.4%	-0.7	-15.0%
Cc1occc1C(=O)Nc1c(F)c(F)c(F)c(F)c1F	9.7%	1.3%	-0.9	-21.8%
CC(C)(C)NC(=O)C[C@H]1C[C@H](C(=O)N2CCCCC2)[C@@]2(C)c3[nH]c4ccc(Cl)cc4c3CCN2C1=O	5.8%	0.2%	/	/
C=CCn1c(CCNC(=O)c2ccc(Cl)c(Cl)c2)nnc1SCCOc1ccc(OC)cc1	2.5%	4.8%	-9.0	14.4%
O=C1CN(C(=O)C2CCCC2)CCN1	4.2%	2.6%	-13.8	-1.5%
Cn1c(CC(=O)Nc2ccccc2)n[nH]c1=S	9.8%	0.6%	0.0	-0.1%
COc1ccc(C(=O)Nc2ccccc2C(=O)N2CCOCC2)cc1OC	16.6%	0.1%	/	-1.6%
Cc1ccc2nc3c(cc(C(=O)NCC4CCCO4)n3C)c(=O)n2c1 (stereo not given)	/	/	25.8	-18.3%
COc1ccc(-c2nc(=S)c3c([nH]2)Oc2ccc(C)cc2C3)cc1O	1.9%	1.6%	-0.1	-3.0%
COc1cc(OC)cc(N2C(=O)CC(N3CCC(C(=O)N4CCCCC4)CC3)C2=O)c1 (stereo not given)	0.2%	3.3%	/	2.9%
CCN(CC)S(=O)(=O)c1ccc(Cl)c(NC(=O)c2ccncc2)c1	-8.3%	2.5%	9.1	-8.9%
O=c1c2ccccc2c(C=NCc2ccccn2)c(O)n1-c1ccccc1	-17.4%	4.5%	-1.6	3.3%
Cc1ccc(S(=O)(=O)N2CCN(c3ccc(C(=O)N4CCOCC4)cc3[N+](=O)[O-])CC2)cc1	2.2%	1.3%	-5.1	8.6%
COc1ccc(-c2cc(CNC(=O)CN3CCN(C)CC3)on2)cc1	6.8%	1.4%	1.0	-5.1%
COc1ccc(Cl)cc1NC(=O)CSc1sc2c(O)cc(=O)[nH]c2c1C#N	-1.8%	-5.2%	/	12.1%
Cn1nc(Cc2cccc3ccccc23)c(C#N)c1N	8.2%	-1.7%	/	/
COc1ccc(N2C(=O)CC2(C#N)c2ccc(OCc3ccccc3)cc2)cc1 (stereo not given)	3.8%	-1.3%	-2.9	-10.0%
Cc1ccccc1OCCn1cc(C=O)c2ccccc21	21.0%	1.0%	/	7.3%
Cc1nn(Cc2c(Cl)cccc2Cl)c(Cl)c1/C=C/C(=O)OCC(=O)NCC(F)(F)F	11.4%	0.1%	3.4	-1.5%
O=C(NC1CCCC1)C(c1ccco1)N(C(=O)c1ccco1)c1ccccc1 (stereo not given)	15.7%	0.2%	/	-0.4%
CCCCCNC(=O)N[C@H](C(=O)O)C(C)C	-11.4%	0.4%	9.6	-2.1%
C=CCN1C(=S)N[C@@H]2CS(=O)(=O)C[C@@H]21	1.8%	-0.3%	-5.8	-4.9%
Cc1nc2cc3nc(C)sc3cc2s1	3.9%	-1.1%	-4.3	-48.1%
